Marburg entry – qHTS for Inhibitors of binding or entry into cells for Marburg Virus. Marburg virus pseudotype entry/binding inhibition, cell-based; control for the full effect not named in the record; many of its hits are not listed in these tables. Potency, µM (series often up to 49.2 µM), for inactives: at the top dose activity change, negative = inhibition, usual class: inhibitors. 18,000 tested, 6.5% active. AID 720532, 2013; active means well fitted inhibition curve with a large enough effect; inconclusive means small, poorly fitted or top-dose-only effect; inactive means no such curve, though single readings can be large or run the other way; tested in HEK293 cells; further: luciferase read-out
LASV entry inh – qHTS for Inhibitors of binding or entry into cells for Lassa Virus. Lassa virus pseudotyped entry inhibition, cell-based qHTS; control for the full effect not named in the record; many of its hits are not listed in these tables. 18,000 tested, 4.1% active. Potency, µM (series often up to 49.2 µM), for the others: top-dose activity change, negative = inhibition, usual class: inhibitors; active = well fitted inhibition curve with a large enough effect; inconclusive = small, poorly fitted or top-dose-only effect; inactive = no such curve, though single readings can be large or run the other way; tested in HEK293 cells; further: luciferase read-out
Numbers without * were called inactive; ? = inconclusive; . = no result given; & = joins results of further samples; [ ] = dose if it differs, or a comment. On the % scale 0 is the no-effect control and ±100 the full control effect; potency means the concentration at half of the fitted maximal effect. These rows are one share of the data. The share of hits here may be higher or lower than overall.

smiles,LASV entry inh,Marburg entry
CC(C)C[C@@H]1COc2cc(NCCCN3CCOCC3)ccc2S(=O)(=O)N1,20%,34%[activator]
COCC(=O)Nc1cc(C(=O)N2CC3(C)CC2CC(C)(C)C3)c2c(c1)nc(-c1ccncc1)n2C (configuration not stated),-2%,-12%
CC=COC(=O)N[C@@H](c1ccccc1)[C@]1(C(C)=O)CCCC1=O,.,-6%[8.59 µM]
COCOc1cc(OC)ccc1C(=O)/C=C/c1cccc(C(F)(F)F)c1,-13%,-17%
COc1ccc(Br)c2oc(SC)cc(=O)c12,-11%,1%
CC(=O)C(O)C(c1ccccc1)c1c(O)c2ccccc2oc1=O (configuration not stated),7%,-3%
O=c1cccc2n1CC1CC2CN2CCCCC12 (configuration not stated),0%,-5%
c1ccc([C@H]2CN3CCSC3=N2)cc1,-10%,2%
O=C(Cl)CCCCCCCC(=O)Cl,7%,-3%
CS(=O)(=O)Nc1cccc(-c2nc(N3CCOCC3)c3ccccc3n2)c1,-4%,-28%
O=C(Nc1cccc(F)c1)c1ccc(Br)o1,4%,24%
CC(Nc1oc(-c2ccccc2)nc1C(C)(C)C)c1ccccc1 (configuration not stated),.,-5%[8.59 µM]
COc1ccc(COCC[C@@H]2C[C@@H]3C=CCOP(=O)(O2)O3)cc1,-29%,13%
COc1ccc2[nH]c3c(c2c1)CCNC3C (configuration not stated),8%,6%
OC[C@H]1O[C@H](c2ccccc2)C=C[C@H]1O,-16%[8.59 µM],-8%[8.59 µM]
CC(C)(C)NCC(O)c1cc(O)cc(O)c1 (configuration not stated),-2%,1%&14%
COc1cc(O)c(C(=O)/C=C/c2ccc(O)c(OC)c2)c(OC)c1,?,-26%
CC(C)[N+](C)(C)CC(O)COc1cccc2ccccc12 (configuration not stated),4%,28%
COc1cc(-c2cc(C)c3c(OC)ccc(OC)c3n2)cc2c1OCCN(Cc1cn(C)nc1C)C2,-3%,-5%
Cc1cnc(SCC2CCCO2)nc1C1CCCN(Cc2cc3c(cc2Cl)OCO3)C1 (configuration not stated),-8%,?
CCCCC/C=C\C/C=C\C=C\[C@@H](O)C/C=C\CCCC(=O)O,2%,5%
O=C1C=CC[C@@H]2[C@H]3CCCN4CCC[C@@H](CN12)[C@@H]34,-7%,-14%
Cc1ccccc1-c1cccc(CN2CCc3nnc(C(C)NC(=O)c4cccnc4)n3CC2)c1 (configuration not stated),3%,12%
COCC(=O)Nc1cc(C(=O)N2CCc3sccc3C2)c2c(c1)nc(-c1ccncc1)n2C,-1%,-12%
FC(F)(F)c1cc(CO[C@H]2CCCN[C@H]2c2ccccc2)cc(C(F)(F)F)c1,25µM*,10µM*
Cc1ccc(C(=O)NC(C)C)cc1-c1ccc(C(=O)NCC2CC2)cc1,.,?
CC(=O)c1ccccc1-c1ccc2c(c1)CC(CNC(=O)c1cc(C)on1)O2 (configuration not stated),-3%,-25%
COCc1ccc(CN2Cc3cc(Cl)ccc3OC(C)C2)o1 (configuration not stated),2%,0%
CC1C(=O)N(Cc2cn(Cc3ccco3)nn2)CCS(=O)(=O)N1Cc1ccc(-c2cccnc2)cc1 (configuration not stated),7%,14%
N=C(N)n1cccn1,-4%,-9%
CN(Cc1ccon1)C(=O)c1cnn(-c2ncc3c(n2)-c2ccccc2CCC3)c1C1CC1,-9%,-26%
O=C(c1c(O)c2ccc(Cl)cc2[nH]c1=O)C1CC1,1%&0%,1%&7%
COc1ccc(-c2nc3cc(C)ccc3cc2CN(C(=O)c2csc(C)n2)C2CC2)cc1OC,-5%,-6%
O=S1(=O)CCSCCN1Cc1ccc(Br)cc1,17%,6%
CCc1cccc(CC)c1N(COC)C(=O)CCl,-3%,-7%
COc1ccc(/C=C/c2cc(O)cc(O)c2)cc1,-3%,1%
CCCN1CCO[C@@H]2c3cc(O)ccc3OC[C@@H]21,-2%,3%
CC(C)CC(NC(=O)C(COC(C)(C)C)NC(=O)C(Cc1ccc(O)cc1)NC(=O)C(CO)NC(=O)C(Cc1c[nH]c2ccccc12)NC(=O)C(Cc1cnc[nH]1)NC(=O)C1CCC(=O)N1)C(=O)NC(CCCN=C(N)N)C(=O)N1CCCC1C(=O)NNC(N)=O (configuration not stated),0%,14%
OC/C=C/c1ccc(O)c(O)c1,-1%,7%
CC[C@@H](C(=O)[C@@H](C)[C@@H](O)[C@H](C)[C@@H]1O[C@@H]([C@@H](CC)C(=O)O)CC[C@@H]1C)[C@H]1O[C@]2(C=C[C@@H](O)[C@]3(CC[C@@](C)([C@H]4CC[C@](O)(CC)[C@H](C)O4)O3)O2)[C@H](C)C[C@@H]1C,3.2µM*,-79%
O=C(O)CCC1NCC2CC1CN1CCCCC21 (configuration not stated),1%,-4%
O=C1O[C@H](CO)[C@@H](O)[C@H](O)[C@H]1O,4%,4%
COc1ccccc1-c1cc2c(c(OC)c1)OCCN(C(=O)Cn1nc(-c3ccccc3)c3ccccc3c1=O)C2,-5%,-20%
CC(O)c1cccc2cc(C(O)CNC(C)(C)C)oc12 (configuration not stated),0%,12%
CC(C)(C)OC(=O)N1CCCC(C(=O)Nc2cccc(C(=O)NCCc3ccccc3)c2)C1 (configuration not stated),37%[activator],31%[activator]
COc1ccc(CN2CCCC(n3cc(C(=O)NC4CCCC4)nn3)C2)c2ccccc12 (configuration not stated),-21%,-17%
O=C1/C(=C/c2ccc(O)c(O)c2)Oc2ccccc21,-3%,13%
CCC1CN2CCC1CC2[C@@H](Oc1cc2ccccc2c2ccccc12)c1ccnc2ccc(O)cc12 (some centres not stated),0%[8.59 µM],42%[activator][8.59 µM]
C=C1CN2C(=NC(c3ccccc3)C(C(=O)OC)=C2C)O1 (configuration not stated),-4%[8.59 µM],0%[8.59 µM]
COc1ccc([C@]23Cc4cc(OC)c(OC)cc4[C@H](O2)C2=C(CCCC2=O)O3)cc1,3%[8.59 µM],6%[8.59 µM]
Cc1ccc(-c2ccnc(-n3ncc(C(=O)NCCN4CCOCC4)c3C3CC3)n2)o1,-1%,9%
C=C(C)[C@@]12OC3(c4ccccc4)O[C@@H]1[C@@H]1[C@@H]4O[C@]4(CO)[C@@H](O)[C@]4(O)C(=O)C(C)=C[C@H]4[C@@]1(O3)[C@H](C)[C@H]2OC(=O)/C=C/C=C/c1ccccc1,?,?
COCC1CCCN(c2nc(CN3CCN(C(=O)c4ccco4)CC3)nc3ccccc23)C1 (configuration not stated),-14%,-5%
COc1cccc(-c2nc(Nc3ccncc3)c3ccccc3n2)c1,?,?
CN(C)c1ccc(-c2nc(N(C)Cc3ccco3)c3ccccc3n2)cc1,29%,?
C=CCN1CCc2c(cc(O)c(O)c2Br)[C@@H](c2ccccc2)C1,-25%,?
COc1cccc(-c2ccc(CN3C(C)C(=O)N(Cc4cn(Cc5ccco5)nn4)CCS3(=O)=O)cc2)c1OC (configuration not stated),-10%,-12%
O=C1N=C2SCCN2C(=O)C1Cc1ccc(Cl)cc1 (configuration not stated),-12%,-2%
C=CC(=O)O,0%,6%
CCOC(=O)CCN1C(=O)[C@@H]2[C@H]3[C@H](O)[C@H](O)CC(=NNC(=O)OCc4ccc(OC)cc4)[C@H]3CC[C@H]2C1=O,.,22%[8.59 µM]

16 entries out of the list, ordered by count of non-hydrogen atoms, lowest first.
smiles,LASV entry inh,Marburg entry
C=CC(=O)O,0%,6%
O=C1O[C@H](CO)[C@@H](O)[C@H](O)[C@H]1O,4%,4%
O=C1/C(=C/c2ccc(O)c(O)c2)Oc2ccccc21,-3%,13%
CC(O)c1cccc2cc(C(O)CNC(C)(C)C)oc12 (configuration not stated),0%,12%
C=C1CN2C(=NC(c3ccccc3)C(C(=O)OC)=C2C)O1 (configuration not stated),-4%[8.59 µM],0%[8.59 µM]
C=CCN1CCc2c(cc(O)c(O)c2Br)[C@@H](c2ccccc2)C1,-25%,?
COc1cccc(-c2nc(Nc3ccncc3)c3ccccc3n2)c1,?,?
CN(C)c1ccc(-c2nc(N(C)Cc3ccco3)c3ccccc3n2)cc1,29%,?
Cc1ccc(-c2ccnc(-n3ncc(C(=O)NCCN4CCOCC4)c3C3CC3)n2)o1,-1%,9%
COc1ccc(CN2CCCC(n3cc(C(=O)NC4CCCC4)nn3)C2)c2ccccc12 (configuration not stated),-21%,-17%
COCC1CCCN(c2nc(CN3CCN(C(=O)c4ccco4)CC3)nc3ccccc23)C1 (configuration not stated),-14%,-5%
CCC1CN2CCC1CC2[C@@H](Oc1cc2ccccc2c2ccccc12)c1ccnc2ccc(O)cc12 (some centres not stated),0%[8.59 µM],42%[activator][8.59 µM]
CCOC(=O)CCN1C(=O)[C@@H]2[C@H]3[C@H](O)[C@H](O)CC(=NNC(=O)OCc4ccc(OC)cc4)[C@H]3CC[C@H]2C1=O,.,22%[8.59 µM]
COc1cccc(-c2ccc(CN3C(C)C(=O)N(Cc4cn(Cc5ccco5)nn4)CCS3(=O)=O)cc2)c1OC (configuration not stated),-10%,-12%
COc1ccccc1-c1cc2c(c(OC)c1)OCCN(C(=O)Cn1nc(-c3ccccc3)c3ccccc3c1=O)C2,-5%,-20%
C=C(C)[C@@]12OC3(c4ccccc4)O[C@@H]1[C@@H]1[C@@H]4O[C@]4(CO)[C@@H](O)[C@]4(O)C(=O)C(C)=C[C@H]4[C@@]1(O3)[C@H](C)[C@H]2OC(=O)/C=C/C=C/c1ccccc1,?,?

A second format for part of the listing above:
CC1C(=O)N(Cc2cn(Cc3ccco3)nn2)CCS(=O)(=O)N1Cc1ccc(-c2cccnc2)cc1 (configuration not stated)
  LASV entry inh: 7%	Marburg entry: 14%

N=C(N)n1cccn1
  LASV entry inh: -4%	Marburg entry: -9%

(cont.)
smiles,LASV entry inh,Marburg entry
CCCCCCCC(=O)CC[C@@H]1[C@@H](C/C=C\CCCC(=O)OC(C)C)[C@@H](O)C[C@H]1O,16µM*,?
O=C(CCCCCCCCCCCCC1CCCC1)Nc1ccc(S(=O)(=O)c2ccc(NC(=O)CCCCCCCCCCCCC3CCCC3)cc2)cc1,-10%,25%
C=C1CC[C@H](O)C/C1=C/C=C1\CCC[C@]2(C)[C@@H]([C@H](C)CCCC(C)(C)O)CC[C@@H]12,-3%,47%[activator]
COc1ccc2c(c1)CCC1C2CC[C@@]2(C)C(O)CCC12 (some centres not stated),-18%,7%
COC1=CC2C3Cc4ccc(OC)c(O)c4[C@]2(CCN3C)CC1=O (some centres not stated),5%,-1%
CCN1CCCC1CNC(=O)c1cnn(-c2nccc(-c3cccs3)n2)c1C(C)C (configuration not stated),-13%,?
C=CC1=C2C=C(C3CC3)N(CCN3CCOCC3)C=C2C(=O)C(C)(OC(=O)c2ccco2)C1=O (configuration not stated),-14%[8.59 µM],16%[8.59 µM]
CCCCCCNC(=O)c1ccc(Br)o1,-13%,34%[activator]
O=C(O)c1ccc2c(c1)OCO2,1%,0%
C=CC1=C2C=C(C3CC3)N(CCCCO)C=C2C(=O)C(C)(OC(=O)c2ccco2)C1=O (configuration not stated),-15%[8.59 µM],?
O=[N+]([O-])c1ccc2nc(N3CCNCC3)ccc2c1,1%,7%
C=CC[C@@]1(c2ccc(Br)cc2OC)Oc2ccccc2-c2nccnc21,2%[8.59 µM],?
C=C1c2ccccc2O[C@H](C(=O)OCC)[C@@H]1CCC(C)C (tested in a mixture with another compound),0%,-1%
CCn1c(-c2ccccc2F)nc2cc(NC(C)=O)cc(C(=O)NCc3ncc(C)[nH]3)c21,-1%,-16%
COc1ccc2c(c1)[C@@]1(C)CCC[C@](C)(CO)C1CC2 (some centres not stated),?,7%
COc1cc2c(cc1OC)[C@H](C)NCC2,5%[17.8 µM],-19%[17.8 µM]
COc1cc(=O)n2c(c1C(=O)NCc1nonc1C)CCN(C(=O)c1cccc(C)c1C)CC2,-5%,?
CC(C)C[C@H](N)C(=O)N[C@H](C(=O)N[C@H](C(=O)N[C@@H](Cc1ccc(O)cc1)C(=O)N1CCC[C@H]1C(=O)N[C@@H](Cc1c[nH]c2ccccc12)C(=O)N[C@H](C(=O)N[C@@H](CCC(N)=O)C(=O)N[C@@H](CCCN=C(N)N)C(=O)O)[C@@H](C)O)C(C)C)C(C)C,17%,11%
O=[N+]([O-])c1ccc(CN2CC(N3CC=CC3)CS2(=O)=O)cc1 (configuration not stated),15%,24%
C1CNCCN1,2%&3%,7%&19%
Cc1onc(-c2ccccc2)c1C(=O)NCCN1Cc2ccccc2OC(c2ccsc2)C1 (configuration not stated),-25%,-1%
CCN(C)C(=O)Oc1cccc([C@H](C)N(C)C)c1,-5%,8%
O=S1(=O)CC(N2CCCC2)CN1C1CCCC1 (configuration not stated),-11%,30%
C[C@H](NC(=O)CNC(=O)[C@@H](NC(=O)[C@H](Cc1ccccc1)NC(=O)CNC(=O)CNC(=O)[C@@H](N)Cc1ccccc1)[C@@H](C)O)C(=O)N[C@@H](CCCN=C(N)N)C(=O)N[C@@H](CCCCN)C(=O)N[C@@H](CO)C(=O)N[C@@H](C)C(=O)N[C@@H](CCCN=C(N)N)C(=O)N[C@@H](CCCCN)C(N)=O,-4%,-10%
COc1ccc(Oc2cccc3c2S(=O)(=O)N(C2CC2)C[C@@H](COCc2ccccc2)O3)cc1,-29%,?

Screening data: PubChem, National Center for Advancing Translational Sciences (NCATS)
